Source: PubChem (National Center for Advancing Translational Sciences (NCATS))
NS1 inh – qHTS Assay for Inhibitors of Influenza NS1 Protein Function | S. cerevisiae slowed by influenza A NS1, growth recovery by OD600 | Potency, µM (series often up to 46.1 µM), for inactives: top-dose activity, positive = more growth | 0.4% of 270,000 active; active means well fitted rising curve with a large enough effect; inconclusive means small, poorly fitted or top-dose-only effect; inactive means no such curve, though single readings can be large or run the other way; further: nearly all actives have a fitted effect of over 50% in size
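Read-out: OD600 growth recovery of NS1-expressing budding yeast. Cells grown overnight at 30C in -URA glucose medium, washed, resuspended and diluted 1:100 in 2% galactose assay medium, pH 6.0. Same strain lacking NS1 served as positive control.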
SARS PLpro yeast – qHTS of Yeast-based Assay for SARS-CoV PLP | Potency, µM (highest dose often 32.9 µM), inactives show top-dose activity, positive = growth rescue | S. cerevisiae expressing SARS-CoV PLpro, growth rescue; control for the full effect not named in the record | AID 485353, 2010 | 0.19% of 330,000 active; active means well fitted rising curve with a large enough effect; inconclusive means small, poorly fitted or top-dose-only effect; inactive means no such curve, though single readings can be large or run the other way; further: 0% is about no effect; nearly all actives have a fitted effect of over 55% in size; growth read by luminescence after 48 h
LASV entry inh – qHTS for Inhibitors of binding or entry into cells for Lassa Virus. 1.2% of 300,000 active. AID 540256, 2011. Potency, µM (highest dose often 37.9 µM), for the others: at the top dose activity change, negative = inhibition, most hits filed as inhibitors. Lassa virus pseudotype entry inhibition, cell reporter; control for the full effect not named in the record; active means well fitted inhibition curve with a large enough effect; inconclusive means small, poorly fitted or top-dose-only effect, or effect the other way; inactive means flat fitted curve, though single readings scatter; tested in HEK293 cells; further: on the % scale 0 is the no-effect control and ±100 the full control effect; nearly all actives have a fitted effect of over 50% in size; luciferase read-out
Cruzain Triton – qHTS Assay for Promiscuous and Specific Inhibitors of Cruzain (with detergent) | 0.43% of 200,000 active | Cruzipain (Trypanosoma cruzi), P25779 | purified cruzain, Z-FR-AMC fluorescence, 0.01% Triton | Potency, µM, for the others: max response, negative = inhibition, most hits filed as inhibitors | AID 1478, 2009;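 further: plate controls were neutral wells for no effect and buffer without enzyme for full effect; nearly all actives have a fitted effect of over 40% in size; top concentration of the series not given in the record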
Target sequence (P25779 123-467 limits assumed): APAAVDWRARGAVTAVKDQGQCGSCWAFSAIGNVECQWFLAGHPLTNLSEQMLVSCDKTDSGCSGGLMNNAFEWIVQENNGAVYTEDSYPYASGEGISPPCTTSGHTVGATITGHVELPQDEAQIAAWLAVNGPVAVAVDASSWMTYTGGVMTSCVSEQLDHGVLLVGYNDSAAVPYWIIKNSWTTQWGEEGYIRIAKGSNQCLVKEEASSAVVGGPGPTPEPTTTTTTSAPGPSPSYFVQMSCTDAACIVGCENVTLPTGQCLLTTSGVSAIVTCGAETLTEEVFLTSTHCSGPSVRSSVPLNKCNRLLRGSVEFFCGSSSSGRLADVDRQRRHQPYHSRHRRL
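Sodium acetate buffer (100 mM, pH 5.5) containing 5 mM DTT and 0.01% Triton X-100 hosted 1.5 nM cruzain and test compound for 15 min at room temperature. Cleavage of 2 uM Z-FR-AMC was then tracked by fluorescence.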
Cruzain inh noDet – qHTS Assay for Promiscuous and Specific Inhibitors of Cruzain (without detergent). Cruzipain (Trypanosoma cruzi), P25779. purified cruzain, Z-FR-AMC fluorescence, no detergent. Potency, µM, for inactives: max response, negative = inhibition, actives largely listed as inhibitors. 2.3% of 200,000 active. AID 1476, 2009;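 further: plate controls were enzyme without inhibitor for no effect and buffer without enzyme for full effect; nearly all actives have a fitted effect of over 40% in size; top concentration of the series not given in the record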
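Purified cruzain at 1.5 nM, pre-incubated 15 min with compound at room temperature in 100 mM sodium acetate pH 5.5, 5 mM DTT, 0.00005% Triton X-100. Reaction started with 2 uM Z-FR-AMC; AMC fluorescence increase over 60 s gives rate.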
Marburg entry inh – qHTS for inhibitors of binding or entry into cells for Marburg Virus; Marburg virus pseudotyped entry inhibition, cell reporter; control for the full effect not named in the record; about a third of the inactives were read at about 46 µM; Potency, µM (highest dose often 37.8 µM), for inactives: at the highest dose activity change, negative = inhibition, actives largely listed as inhibitors; 1.8% of 300,000 active; active = well fitted inhibition curve with a large enough effect; inconclusive = small, poorly fitted or top-dose-only effect, or effect the other way; inactive = flat fitted curve, though single readings scatter; tested in HEK293 cells; about a fifth of its hits are not listed in these tables; further: on the % scale 0 is the no-effect control and ±100 the full control effect; luciferase read-out
StopGo reporter – High Throughput Screening for Foot and Mouth Disease Virus Antivirals; human cells with a luciferase reporter of 2A StopGo recoding; control for the full effect not named in the record; Potency, µM (titrated, usually from 57.9 µM), without a hit: top-dose signal change, negative = less light; 1.2% of 410,000 active; active = well fitted falling curve with a large enough effect; inconclusive = small, poorly fitted or top-dose-only effect; inactive = no such curve, though single readings can be large or run the other way; tested in HEK293T cells; further: on the % scale 0 is the no-effect control and ±100 the full control effect; nearly all actives have a fitted effect of over 45% in size; luciferase light after 4 h
RE007 growth inh – qHTS Assay for Inhibitors of the HIV-1 protein Vpr | S. pombe RE007 Vpr strain, BacTiter-Glo ATP luminescence, 24 h; control for the full effect not named in the record | 0.21% of 360,000 active | Potency, µM (series often up to 92.2 µM), without a hit: at the top dose activity change, negative = less growth; active = well fitted falling curve with a large enough effect; inconclusive = small, poorly fitted or top-dose-only effect; inactive = no such curve, though single readings can be large or run the other way;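 further: on the % scale 0 is the no-effect control and ±100 the full control effect; nearly all actives have a fitted effect of over 50% in size; the assay follows cell death caused by Vpr and the record does not say whether a fall means rescue or toxicity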
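Fission yeast RE007 carrying one integrated HIV-1 vpr copy, seeded at OD 0.01 in PMG+AL medium with 23 nL pinned compound. Grown 24 h at 30 degrees; viability read by BacTiter-Glo luminescence after 5 min.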
* = called active by the depositor; ? = inconclusive; · = no result given; & = joins results of further samples; [ ] = dose if it differs, or a comment. Unless noted, the call rests on the fitted dose curve; in most records, active means well fitted curve in the direction sought with a large enough effect; inconclusive means small, poorly fitted or top-dose-only effect, or another doubt; inactive means no such curve, though single readings can be large; an effect the other way counts as inactive or inconclusive. Potency means the concentration at half of the fitted maximal effect. Not a hit list; overall some 4.7% were active at least once.

The line under a structure holds: Marburg entry inh	StopGo reporter	NS1 inh	Cruzain Triton	LASV entry inh	SARS PLpro yeast	Cruzain inh noDet	RE007 growth inh
> O=C(CCCc1ccccn1)c1ccc(-c2ccccc2)cc1
    20%[46.1 µM]	33%[activator]	·	·	?	·	·	?
> CC(=O)NC1CC2CCCC(C1)N2CC(=O)N1CCCc2ccccc21 (stereo not given)
    22%	6%	-3%	2.9%	-20%	13%	2%	-6%
> Cc1ccc(S(=O)(=O)N2CCCC2)cc1S(=O)(=O)N1CCCC1
    5%	-1%	-15%	0.4%	2%	-3%	-3%	7%
> CN1CCC(Oc2ccccc2Sc2ccccc2)CC1
    10µM*	?	-14%	0.6%	8.2µM*	-10%	1%	-5%
> COC(=O)Nc1ccc(SCC(=O)c2ccc(Cl)cc2)cc1
    -3%[46.1 µM]	-11%	3%	·	?	-14%	·	-7%
> C=CCN1C(=O)/C(=c2\sc3nc(=O)c(Cc4ccccc4)nn3c2=O)c2ccccc21
    27%	-21%	3%	·	-5%	1%	·	-20%
> CC(OC(=O)c1ccc(Cl)nc1)C(=O)Nc1ccc(S(=O)(=O)N2CCCC2)cc1 (stereo not given)
    27%	-18%	·	·	4%	0%	·	25%
> CCOc1ccc2nc(SCC(=O)N(CC(C)C)c3c(N)n(Cc4ccccc4)c(=O)[nH]c3=O)[nH]c2c1
    ?	-3%	·	·	?	4%	·	27%
> COc1cc(NC(=O)CCCn2c(=S)[nH]c3ccccc3c2=O)cc(OC)c1OC
    -11%[46.1 µM]	0%	·	·	?	-1%	·	20%
> CCOc1ccccc1NC(=O)Cn1c(=O)c2ccccc2n(CC)c1=O
    -21%	-14%	-2%	-4.5%	6%	?	10%	21%
> COc1ccc(CNC(=O)c2cc(Nc3ccccc3C)nc3ccccc23)cc1
    -1%[46.1 µM]	-14%	·	-12%	12%[46.1 µM]	·	25µM*	·
> NC(=O)c1ccsc1NC(=O)c1ccco1
    ·	9%	-12%	-3.2%	·	-7%	-5%	-6%
> COc1ccc(C2=NCC(=S)Nc3ccc(Cl)cc32)cc1OC
    7%[46.1 µM]	-8%	·	·	5%[46.1 µM]	·	·	-3%
> O=C(/C=C/c1ccc(Cl)cc1)NCCSc1ccccc1
    ?	18%	-17%	-2.0%	17%	0%	1%	-10%
> Cn1nnc2c(NCc3c(F)cccc3F)ncnc21
    ·	2%	·	0.5%	3%[46.1 µM]	·	3%	·
> COc1ccc(CNC(=O)Cn2c(=O)nc(-c3ccccc3F)c3cc(Cl)ccc32)cc1OC
    ·	14%	·	2.9%	?	·	2%	·
> Cc1c(Cl)c([N+](=O)[O-])nn1CCCC(=O)O
    5%[46.1 µM]	-12%	·	·	·	1%	·	-1%
> C/C(=N\Nc1ccc(C(=O)O)cc1)c1ccc(Br)cc1
    ·	?	-51%	·	·	-3%	·	-18%
> c1ccc(Nc2ccc(Nc3ccccc3)cc2)cc1
    ·	27%	·	-7.3%	·	-6%	2%	-17%
> O=C(NCc1ccc(F)cc1)c1cnc(Cl)c(Cl)c1
    28%[46.1 µM]	15%	1%	·	10%	-2%	·	-17%
> Cc1ccc2nc(SCC(=O)c3ccc(O)cc3O)[nH]c2c1
    ·	89%[activator]	17%	·	·	-1%	·	-4%
> Cc1ccc(NC(=O)c2sc3nc(-c4ccc(F)cc4)cn3c2C)c(C)c1
    ·	-4%	·	-1.1%	0%[46.1 µM]	·	-6%	·
> Cc1ccc(/C=C2\SC(=S)N(CCC(=O)NNC(=O)c3ccccc3O)C2=O)cc1
    -16%[46.1 µM]	-2%	16%	·	3%[46.1 µM]	3%	·	6%
> COc1ccc(NC(=S)N(Cc2ccccn2)Cc2ccccc2Cl)cc1
    14%[46.1 µM]	23%	·	·	11%	-5%	·	-3%
> CN1CCN(NC(=O)c2ccc(Cl)c([N+](=O)[O-])c2)CC1
    -8%	-18%	4%	4.9%	-1%	13%	-4%	13%
> O=C(COc1cccc2c1CCN(Cc1ccc(Br)cc1)C2=O)N1CCOCC1
    ?	?	·	·	?	4%	·	1%
> N#CC1=C(N)NC(SCc2ccc(Cl)cc2)=C(C#N)C12CCCCC2
    11µM*	0%	25%	-19%	?	-1%	?	15%
> COCCCNC(=O)c1ccc(CS(=O)(=O)Cc2cccc(C)c2)o1
    12%	-23%	-5%	1.3%	3%	1%	-7%	8%
> Cc1ccc(O)c(-n2nc3ccccc3n2)c1
    ?	19%	-1%	·	?	0%	·	-16%
> COc1ccc(CCNC(=O)/C(C#N)=C/c2cccc(OCc3ccccc3)c2)cc1OC
    ?	28µM*	-22%	-10%	-19%	9%	19%	-1%
> C=CC(=O)NCc1ccc(-c2csnn2)cc1
    -3%	12%	1%	·	24%	1%	·	-12%
> COC(c1ccccc1)c1nnc(CCC(=O)NCCCc2ccccc2)o1 (stereo not given)
    ?	25%	-2%	·	-2%	1%	·	-16%
> O=C(Nc1ccc(Br)cc1)C1Cc2ccccc2O/C1=N\O (stereo not given)
    ·	38%[activator]	2%	·	·	-1%	·	5%
> O=C(NCc1ccccc1Cl)c1cc2ccccc2o1
    6%[46.1 µM]	50%[activator]	·	-10%	?	·	-14%	·
> Cc1cc(F)ccc1NCc1cc2c(cc1[N+](=O)[O-])OCO2
    -15%	-27%	1%	-8.8%	-10%	-4%	3%	-27%
> Cc1nc(N2CCOCC2)c(C#N)c2c1COC(C)(C)C2
    0%&0%	-13%	-6%	-2.9%	8%	-7%	5%	6%
> Brc1cccc(-c2nnc(-c3ccccc3)o2)c1
    ?	8%	-16%	-0.1%	?	-7%	-14%	-22%
> CC(=O)Nc1ccc(Oc2nc(C(F)(F)F)nc3ccccc23)cc1
    -23%[46.1 µM]	-19%	-2%	·	9%[46.1 µM]	-5%	·	15%
> CN1CCC(OC(=O)COc2ccc(Br)cc2)CC1
    ?	5%	0%	·	19%	0%	·	-7%
> CC(CCNC(=O)c1ccccc1)(CCNC(=O)c1ccccc1)[N+](=O)[O-]
    15%	-5%	·	·	2%	·	·	27%
> Cc1c(NC(=O)CSCc2ccco2)c(=O)n(-c2ccccc2)n1C
    11%[46.1 µM]	-8%	6%	·	20%[46.1 µM]	11%	·	5%
> CCOc1ccc(NCC(=O)Nc2ccc(Cl)cc2C)cc1
    -6%	-6%	-9%	-4.7%	-20%	-7%	-14%	-1%
> Cc1ccc(-c2cc(C(=O)NCc3cnn(C)c3)c3cc(Br)ccc3n2)cc1
    -1%[46.1 µM]	-5%&21%	1%	-4.7%&7.0%	?	-19%	0%&17%	-10%
> CNC(=S)N(Cc1ccc(OC)cc1)C1CC(=O)N(c2ccc(C(=O)OC)cc2)C1=O (stereo not given)
    6%	·	-21%	-6.8%	·	5%	?	·
> CCn1c(C)nc2cc(S(=O)(=O)N3CCCCC3)ccc21
    -1%	-24%	6%	0.8%	9%	6%	-1%	-4%
> O=C(c1ccc([N+](=O)[O-])s1)N1CCN(c2ccccc2)CC1
    3%	-11%	-5%	-0.8%	·	8%	-3%	?
> COc1cccc(CN(C)C(=O)c2cccc(S(=O)(=O)N3CCN(Cc4ccccc4)CC3)c2)c1OC
    ?	?	·	·	?	0%	·	1%
> CCC1=NN(C(=O)COc2ccccc2C)C(O)(c2ccncc2)C1 (stereo not given)
    8%	-14%	2%	·	0%	-2%	·	9%
> Cc1cc(C(=O)OCC(=O)Nc2ccccc2C)c(C)o1
    14%	2%	·	·	-2%	-5%	·	13%
> Cc1cc(C)c(NC(=O)CN(C2CCCCC2)C2CCCCC2)c(C)c1
    ?	8%	-1%	3.8%	?	-5%	2%	-8%
> COC(=O)c1ccc(C)c(-n2c(C)cc(C=O)c2C)c1
    -4%	-25%	32%	2.8%	15%	-15%	10%	2%
> Cc1[nH]n(-c2ccccc2)c(=O)c1C(c1ccccc1C(=O)O)c1c(C)[nH]n(-c2ccccc2)c1=O
    -28%	?	1%	0.4%	8%	11%	5%	1%
> Cc1[nH]c2ccccc2c1CC(=O)O
    -1%	3%	4%	0.1%	?	1%	1%	9%
> COc1ccccc1N1CCN(CCCC(=O)c2ccc(F)cc2)CC1
    ·	-12%	-7%	6.3%	·	6%	-5%	9%[18.4 µM]
> Cc1ccc2cc(C(c3nnnn3C3CCCC3)N3CCOCC3)c(=O)[nH]c2c1C (stereo not given)
    -20%	17%	-9%	-2.1%	-2%	-3%	-3%	18%
> Cc1ccc(NC(=O)CS(=O)Cc2nc(-c3ccc(C)cc3)oc2C)cc1 (stereo not given)
    ·	24%	4%	-3.9%	·	4%	-1%	0%
> CC1CN(c2nc3ccccn3c(=O)c2C=O)CC(C)O1 (stereo not given)
    ·	-18%	4%	·	·	0%	·	-23%
> ClC(Cl)=C(c1ccc(Cl)cc1)c1ccc(Cl)cc1
    ·	-10%&-16%	·	-3.3%&3.7%&4.3%	·	·	-10%&-11%&-7%	-1%[18.4 µM]
> CCc1ccc(/C=C(/C#N)C(N)=S)s1
    ?	9%	·	·	0%[46.1 µM]	10%	·	6%
> CCOc1ccc2oc(C(=O)N3CCN(c4ccccn4)CC3)c(C)c2c1
    2%	9%	-54%	·	1%	-6%	·	-4%

(cont.)
The line under a structure holds: Marburg entry inh	StopGo reporter	NS1 inh	Cruzain Triton	LASV entry inh	SARS PLpro yeast	Cruzain inh noDet	RE007 growth inh
> CCc1cc(C(=O)N2CCCC(C(=O)c3ccc(C(F)(F)F)cc3)C2)n(C)n1 (stereo not given)
    ·	-17%	-17%	·	·	2%	·	-6%
> COc1cccc2c1OC1(C)CC2NC(=O)N1 (stereo not given)
    -10%	19%	1%	3.1%	-24%	8%	-6%	9%
> CCOC(=O)Cc1csc(NC(=O)COc2ccccc2OCC)n1
    -9%	-5%	-4%	-0.1%	-11%	1%	-1%	6%[3.69 µM]
> CCN(CC)C(=S)SC1CCCCN(C(=O)c2ccc(F)cc2)C1=O (stereo not given)
    ?	-17%	·	·	-24%	0%	·	7%
